High-throughput results from PubChem BioAssay.
eIF4H FP inh: inhibitors of RNA binding by human eIF4H | Q15056 | eIF4H fluorescence polarization binding assay | inhibition, % at 35 µM | actives 0.94% (n = 290,000) | AID 2012;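 active means 50% or more with normal probe brightness, or confirmed in later tests; about a fifth of its hits are not listed in these tables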;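 further: calls also rest on retests at 20 µM and on dose response follow-up; 0% = protein and probe with vehicle and 100% = probe without protein; strong numbers were not always called active; many hits fall short of the cut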
UUG fidelity: yeast start codon fidelity modulation; S. cerevisiae UUG-firefly luciferase reporter, luminescence/redox ratio; activity score, % at 18.7 µM; actives 0.13% (n = 350,000);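 active means replicate mean at a twofold rise or more, about +100% in these data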;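 further: firefly luciferase made from a UUG start codon reports start codon fidelity; reporter light over untreated wells divided by growth signal over untreated wells; some hits fall short of that in this replicate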
CSC inhib: cancer stem cell inhibition; AID 2717; cancer stem cell-like cells viability, luminescence; actives 1.1% (n = 300,000); inhibition, % at 7.5 µM;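 active means mean at 75% or more and at least half the replicates too; tested in HMLE shEcad cells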;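 further: 0% = median of negative and 100% = median of positive control wells; the first replicate is given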
Env fusion inh: HIV envelope-mediated fusion inhibition; inhibition, % at 12.3 µM; AID 651610; actives 1.1% (n = 360,000); HeLa-JRFL Env/CEM21 cell fusion, luciferase;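 active means mean replicate inhibition score of at least 50 and every replicate individually at or above 50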;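 further: 0% = plate neutral controls and 100% = maraviroc near 300 nM; one replicate is shown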
Rce1 inh: inhibitors of yeast Ras-converting enzyme; actives 0.27% (n = 290,000); Q03530; yeast membranes, quenched prenylated peptide cleavage fluorescence; calls only;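 active means fall in fluorescence gain of 50% or more versus controls, with final raw signal at or below 3038400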;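 further: plate controls were neutral control wells for no effect and wells lacking membranes for full effect; tested at 10 µM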
Target sequence (Q03530 whole entry, looked up): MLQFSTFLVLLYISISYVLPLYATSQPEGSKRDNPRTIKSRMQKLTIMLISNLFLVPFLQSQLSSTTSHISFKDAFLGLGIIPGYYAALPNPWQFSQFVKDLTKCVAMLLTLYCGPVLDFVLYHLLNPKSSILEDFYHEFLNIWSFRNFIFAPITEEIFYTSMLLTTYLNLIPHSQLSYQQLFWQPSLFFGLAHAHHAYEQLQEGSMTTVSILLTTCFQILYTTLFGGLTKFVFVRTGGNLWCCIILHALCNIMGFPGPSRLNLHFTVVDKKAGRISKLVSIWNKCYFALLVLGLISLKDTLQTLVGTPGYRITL
MT1-MMP act inh: inhibitors of human MT1-MMP activation | P50281 | actives 0.061% (n = 360,000) | HT1080 RFP-PRO-GFP cells, GFP/RFP ratio fluorescence, overnight; percent of plate control window, DMSO zero | GFP/RFP ratio change, % at 20 µM;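 active means GFP/RFP ratio change of at least 30% with cell ATP level not reduced by more than half and red fluorescence within 50% of control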; further: strong numbers were not always called active
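Test system: HT1080 RFP-PRO-GFP cells; Benchmarks: DMSO and RFP-L50D-GFP cell wells; Timing: cells overnight before dosing, compound overnight, 37 °C, 5% CO2; Compound: one 20 µM compound dose with 1% DMSO; Read-out: GFP/RFP fluorescence ratio.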
PABP polyA inh: PABP-poly(A) binding inhibition | PABP-poly(A) RNA binding, fluorescence polarization | inhibition, % at 35 µM | actives 1% (n = 290,000) | AID 2014;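 active means 50% or more with normal probe brightness, or confirmed in later tests; about a fifth of its hits are not listed in these tables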;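 further: calls also rest on retests at 20 µM and on dose response follow-up; controls were probe without protein and protein plus probe with vehicle; some compounds called inactive have numbers as strong as hits; many hits fall short of the cut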
Target sequence (P11940 whole entry, looked up): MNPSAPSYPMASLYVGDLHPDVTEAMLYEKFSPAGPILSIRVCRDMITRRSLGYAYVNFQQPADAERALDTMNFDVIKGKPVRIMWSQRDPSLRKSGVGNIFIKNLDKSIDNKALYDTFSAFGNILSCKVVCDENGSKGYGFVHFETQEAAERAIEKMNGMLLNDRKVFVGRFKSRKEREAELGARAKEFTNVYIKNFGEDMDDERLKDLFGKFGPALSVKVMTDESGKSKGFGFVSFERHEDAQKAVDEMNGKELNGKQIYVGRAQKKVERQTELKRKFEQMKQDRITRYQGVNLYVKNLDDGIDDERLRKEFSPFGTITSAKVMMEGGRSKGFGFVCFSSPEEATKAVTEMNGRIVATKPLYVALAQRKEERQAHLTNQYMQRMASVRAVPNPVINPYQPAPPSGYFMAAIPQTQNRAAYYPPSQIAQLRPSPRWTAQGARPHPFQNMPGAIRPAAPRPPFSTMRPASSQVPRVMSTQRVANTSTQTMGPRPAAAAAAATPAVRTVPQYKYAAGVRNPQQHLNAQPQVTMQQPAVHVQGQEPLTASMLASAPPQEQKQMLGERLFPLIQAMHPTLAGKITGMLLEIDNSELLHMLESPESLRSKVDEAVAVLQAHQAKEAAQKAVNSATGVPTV
eIF4H FP inh retest: second read-out of eIF4H FP inh, no call of its own (marks repeat the call); inhibition, %; compound at 20 µM; confirmation average;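 mean of two retest wells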
PABP polyA inh retest: further read-out of PABP polyA inh, marked with its call; inhibition, %; compound at 20 µM; confirmation repeats;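 mean of two retest wells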
MT1-MMP act inh RFP: second read-out of MT1-MMP act inh, no call of its own (marks repeat the call); RFP signal change, %; measured here: RFP expression control read;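 0 = vehicle wells; hits needed this value within 50% of zero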
Active calls of the source: *; i = inactive; · = not tested or not shown; [ ] = another dose, or the depositor's remark. Not a hit list; about 2.9% have a hit in one of these screens.

SMILES | eIF4H FP inh | UUG fidelity | CSC inhib | Env fusion inh | Rce1 inh | MT1-MMP act inh | MT1-MMP act inh RFP | PABP polyA inh | others
Cc1cccc(OCCN2C(=O)C(=O)c3cccc(C)c32)c1 | 1.1* | · | · | 12 | i | 0 | 7 | 74 | eIF4H FP inh retest=81*;PABP polyA inh retest=46
O=C(O)c1ccc(-n2nnnc2SCc2ccccc2Br)cc1 | -6 | -4 | 7 | -41 | i | -2 | 2 | -9
COC(=O)c1cc(S(=O)(=O)N2CCN(c3ccc(F)cc3)CC2)cn1C | 7 | -7 | -12 | -8 | i | 3 | -7 | 15
Cc1noc(C)c1S(=O)(=O)Nc1ccc(C(=O)NC2CCCCC2C)cc1 (stereo unspecified) | -8 | 1 | -14 | · | i | -7 | -2 | -1
COc1ccc(OC)c(NC(=O)Cn2cc(C#N)c3ccccc32)c1 | -2 | -10 | · | -10 | i | 4 | 4 | -5
CCOC(=O)C1CCCN(C(=O)c2cccc(S(=O)(=O)N3CC(C)OC(C)C3)c2)C1 (stereo unspecified) | 0 | -3 | · | -11 | i | -3 | -4 | -5
NC(=NCc1ccc2c(c1)OCO2)NC(=O)c1ccccc1 | 5 | · | · | -8 | i | 6 | 2 | -6
COc1cc(C2C(C(C)=O)=C(O)C(=O)N2CCc2c[nH]c3ccccc23)ccc1O (stereo unspecified) | 3 | -16 | -3 | -32 | i | 8 | 1 | 12
Cc1cc(C)n(/N=C/c2c[nH]c3ccccc23)c(=O)c1 | 5 | -13 | -1 | -13 | i | 6 | 17 | -5
C[C@@H]1CCCCO[C@H](CN(C)Cc2ccc(C(F)(F)F)cc2)[C@@H](C)CN([C@H](C)CO)C(=O)c2cc(NS(=O)(=O)c3cn(C)cn3)ccc2O1 | · | -5 | · | 24[16.7 µM] | · | 4 | 6 | ·
O=C(Nc1nc(-c2cccnc2)cs1)c1ccc([N+](=O)[O-])cc1 | -12 | -3 | -12 | -13 | · | 3 | -6 | -8
CC1CN(Cc2nnc(-c3ccccc3)o2)CC(C)O1 (stereo unspecified) | 46 | · | -8 | 16 | i | -5 | 0 | 4
c1cnn(-c2cncc(-n3cccn3)n2)c1 | 0 | · | -9 | 15 | i | 1 | 2 | -10
CN1CCN(CC(O)COCCOc2ccc(Br)cc2)CC1 (stereo unspecified) | -9 | -2 | 27 | -21 | i | 3 | 6 | -5
COCCn1c(N)c(C#N)c2nc3ccccc3nc21 | -3 | -23 | -6 | -85 | i | 2 | 7 | -2
CC(C)(C)NCCCCOc1ccc(F)cc1 | 4 | -7 | -7 | · | i | 2 | 4 | -7
Cc1nc(-c2ccc(Cl)cc2)sc1C1(C)CC(c2ccc([N+](=O)[O-])cc2)=NO1 (stereo unspecified) | -4 | -16 | 5 | -21 | i | -2 | -10 | 41
COc1ccc(NC(=O)C2CCN(S(=O)(=O)c3ccc(N4CCCC4=O)cc3)CC2)cc1OC | -7 | -6 | 14 | 5 | i | 2 | 0 | -1
COc1ccccc1C1C2C(=O)N(c3ccccc3)C(=O)C2ON1c1ccccc1 (stereo unspecified) | -14 | -8 | -3 | 1 | i | 3 | 1 | -12
O=C(Nc1ccnc(-c2cccnc2)n1)c1ccc(Cl)cc1 | 70 | -27 | -4 | -3 | i | 4 | -3 | -9 | eIF4H FP inh retest=4;PABP polyA inh retest=6
Cn1c(=O)[nH]c(=O)c2c1nc(Br)n2C/C=N/NC(=O)c1ccccc1 | -1 | 136* | -16 | 2 | · | 3 | -1 | -2
CCCS(=O)(=O)N1CCCC(C(=O)NCc2ccc(C)cc2)C1 (stereo unspecified) | -2 | · | · | · | i | 7 | 4 | -7
COc1cccc(NC(=O)CSc2nnnn2C(C)C)c1 | 1 | -18 | · | · | · | 17 | 4 | -5
CN(C)CCNc1ncnc2c1sc1nc(N3CCOCC3)c3c(c12)CC(C)(C)SC3 | -18 | -3 | -9 | 46 | i | -8 | -11 | -10
COc1ccccc1NC(=O)CSCc1ccc([N+](=O)[O-])cc1 | 3 | · | -2 | -17 | i | 1 | 2 | -2
Cn1cnnc1SCC(=O)Nc1ccc(S(=O)(=O)N2CCOCC2)cc1 | · | -16 | -9 | 2 | · | -1 | 2 | ·
CCN(CC)CCCN(Cc1cc2cc3c(cc2[nH]c1=O)OCO3)C(=O)Nc1ccccc1OC | -7 | · | -10 | · | i | -9 | -3 | -4
Cc1ccc(S(=O)(=O)N2CCOCC2)cc1NC(=O)COc1ccc2c(C)cc(=O)oc2c1 | -7 | 1 | -5 | 3 | i | 3 | -3 | 10
Fc1ccc(CSc2nncn2NCc2ccc3c(c2)OCO3)cc1 | 4 | -34 | 5 | · | i | -3 | -12 | 2
COc1ccccc1NC(=O)N1C2CCCC1CC(NC(=O)c1ccccc1)C2 (stereo unspecified) | -3 | · | -3 | 21 | i | 1 | 2 | 22

Structures shown so far with an aryl thioether with sulfur outside any ring:
SMILES | eIF4H FP inh | UUG fidelity | CSC inhib | Env fusion inh | Rce1 inh | MT1-MMP act inh | MT1-MMP act inh RFP | PABP polyA inh | others
O=C(O)c1ccc(-n2nnnc2SCc2ccccc2Br)cc1 | -6 | -4 | 7 | -41 | i | -2 | 2 | -9
COc1cccc(NC(=O)CSc2nnnn2C(C)C)c1 | 1 | -18 | · | · | · | 17 | 4 | -5
Cn1cnnc1SCC(=O)Nc1ccc(S(=O)(=O)N2CCOCC2)cc1 | · | -16 | -9 | 2 | · | -1 | 2 | ·
Fc1ccc(CSc2nncn2NCc2ccc3c(c2)OCO3)cc1 | 4 | -34 | 5 | · | i | -3 | -12 | 2

The results go on:
SMILES | eIF4H FP inh | UUG fidelity | CSC inhib | Env fusion inh | Rce1 inh | MT1-MMP act inh | MT1-MMP act inh RFP | PABP polyA inh | others
COc1ccc(-c2oc3ccc(-c4cc(OC)c(OC)c(OC)c4)cc3c2C(=O)c2ccc(OC)nc2)cc1 | -13 | -12 | 23 | · | i | -3 | -3 | -7
CCCc1ccc(-c2cc(C(=O)N3CCN(c4ccccn4)CC3)c3ccccc3n2)cc1 | -5 | -35 | -25 | i | i | 0 | -7 | -5
CCOCCCNC(=O)c1cc(Nc2ccc(OC)cc2OC)nc2ccccc12 | -6 | -21 | 0 | 12 | i | -3 | -3 | 3
CC(C)N(CCc1ccncc1)C(=O)Nc1ccc(F)cc1 | 8 | -9 | -11 | 6 | i | -2 | 4 | -5
C=CCn1c(SCC(=O)NC2CCCCC2)nnc1-c1ccc(OC)cc1 | -6 | · | -4 | · | i | 17 | 2 | 11
CCOC(=O)c1cnc2cc(C)nn2c1-c1ccccc1 | 6 | -1 | -2 | 31 | i | 1 | 8 | -2
COc1cccc(C(=O)NCCSCc2c(F)cccc2Cl)c1 | 1 | -7 | -4 | -16 | i | 2 | 1 | 8
CC1CCCC(C)N1S(=O)(=O)c1ccc(S(=O)(=O)NCc2ccccc2)cc1 (stereo unspecified) | -1 | -17 | -11 | · | i | -3 | -5 | -17
O=Cc1cn(CC(=O)Nc2ccc(F)cc2)c2ccccc12 | 0 | · | 6 | 28 | i | -3 | -15 | -2
Cc1ccc(NC(=O)CN2C(=O)NC3(CCc4ccccc43)C2=O)cc1 (stereo unspecified) | -6 | 1 | -15 | -3 | i | 4 | 2 | 8
Nc1nc(Cl)cc(Nc2ccccc2Cl)n1 | -3 | -8 | -11 | -32 | i | 2 | -3 | -2
COc1ccc(-c2cc(NC(C)=O)c3ncc(-c4ccc(OC)c(OC)c4)n3c2)cc1OC | · | 5 | · | 8 | · | 2 | 7 | ·
Cc1ccc(S(=O)(=O)N2CCN(C(=O)N3CCOCC3)C2C)cc1 (stereo unspecified) | 1 | -4 | -2 | -23 | i | 0 | -2 | 20
CCCCN(CC)C(=O)c1ccc(Cl)cc1 | 9 | -5 | -9 | -2 | i | 1 | 2 | -7
Cc1ccc(-c2csc(C(O)c3ccccc3)n2)cc1C (stereo unspecified) | · | 0 | · | -8 | · | 7 | 3 | ·
COCCCNc1ncnc2ccc(C)cc12 | 9 | 7 | -13 | -45 | i | 4 | -17 | 5
CC1(C)ON=C(c2cccc(F)c2)NC1=O | · | -21 | · | -21 | · | 9 | 0 | ·
COn1c(SCc2ccc(Cl)cc2)nc2ccccc2c1=O | -12 | -5 | 11 | 43 | i | 1 | -5 | 2
Cc1csc(=O)n1CCC(=O)NCc1ccc(F)cc1 | · | -12 | -4 | 4 | · | 1 | 7 | ·
CCC(=O)N1CCc2cc(S(=O)(=O)NC(C(=O)N3CCN(c4ccc(F)cc4)CC3)C(C)C)ccc21 (stereo unspecified) | 3 | -12 | -42 | -9 | i | 0 | 0 | 2
O=C(Nc1ccccc1F)c1ccc(CSc2ccccc2)o1 | 8 | · | 2 | -22 | i | -1 | 0 | -5
CNc1ccc(C2(O)C(=O)c3ccccc3C2=O)cc1 | 1 | -21 | 3 | 9 | i | -1 | 1 | -10
CN(C)S(=O)(=O)c1ccc2c(c1)nc1n2CCC1 | -8 | · | 12 | · | i | 3 | 4 | 2
Cc1ccccc1C(=O)N(Cc1cccs1)C1CCS(=O)(=O)C1 (stereo unspecified) | -2 | -15 | -17 | 0 | i | 0 | 2 | -4
COc1ccc(CNC(=O)CN(Cc2ccco2)C(=O)CNS(=O)(=O)c2ccc(C)cc2)cc1 | 8 | -5 | · | 15 | i | -1 | -5 | 15
O=C1Cc2ccccc2C(=O)N1c1ccc(F)cc1Cl | -8 | 1 | -14 | -20 | i | -3 | -1 | 16
Cc1ccc2c(c1)C(=O)C(=O)N2CC(=O)Nc1ccc(N2CCOCC2)cc1 | 3 | -15 | -3 | -15 | i | 1 | 8 | -10
CCCc1nc2c([nH]1)C(c1cccnc1)C(C#N)=C(N)O2 (stereo unspecified) | -8 | · | -4 | 23 | i | 2 | 0 | 6
O=C(Nc1ccc(S(=O)(=O)N2CCCCC2)cc1)c1ccc(Cl)nc1 | · | -23 | 2 | 5 | · | -11 | -28 | ·
COc1ccc(OC)c(-c2cc(C(=O)NC3CCCC3)c3ccccc3n2)c1 | -4 | -11 | 1 | -13 | i | -2 | 0 | 7
COC(=O)c1cc(-c2cccc(OC)c2)c2c(=O)[nH]c(=O)n(C)c2n1 | -2 | -7 | 6 | 24 | i | 7 | 5 | 2
CCCOc1ccc(C(=O)ON=C2CCN(C)CC2)cc1 | -3 | -13 | 1 | 16 | · | 3 | -1 | 3
COc1cc(NC(=S)N(C)CCC#N)c(OC)cc1Cl | 7 | · | -10 | 15 | i | 1 | 5 | 40
O=C(NCN1CCCCC1)c1cnccn1 | 2 | · | -3 | · | i | -3 | 7 | 4
O/N=C/c1ccc2cccc(O)c2n1 | 10 | 5 | 5 | -5 | i | 1 | 3 | -3
COc1cc(Br)cc(CN2CCN(C=O)CC2)c1O | -5 | -10 | 0 | · | i | 5 | 5 | 20
C/C(=N\Nc1ccc([N+](=O)[O-])cc1[N+](=O)[O-])C(C)(C)C(C(=O)O)C(=O)O | -2 | 8 | 6 | 21 | i | 4 | 6 | 34
Cc1cc(C)c2nc(/N=C(\N)NC(=O)Nc3ccccc3)nc(C)c2c1 | 5 | -15 | 17 | 16 | i | -11 | -19 | -3
COc1ccc(CCNC(=O)Cn2nnc(C(=O)Nc3cccc(C)c3C)c2N)cc1OC | · | -5 | 14 | 0 | i | -4 | -10 | ·
CC(=O)Nc1ccc(S(=O)(=O)Nc2nc3ccccc3nc2Nc2ccccc2)cc1 | 2 | · | 10 | 0 | i | 3 | 3 | 6
